Screens as filed in PubChem.
Six1-Eya2 blk: blocks human Six1 binding to Eya2. Q15475+O00167. AlphaScreen GST-Six1/His-Eya2 binding, biochemical; hits give low values; control for the full effect not named in the record. activity change, % (concentration not given with the values). 360,000 compounds, 0.56% hits. AID 651725; in the data active = activity change below about -65%; inconclusive = about -30% to -65%; inactive = above about -30%; further: on the % scale 0 is the no-effect control and ±100 the full control effect
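Six1/Eya2 binding was read as AlphaScreen signal after compounds were pinned into GST-Six1 plus His-tagged Eya2 (5X stock 250/500 nM) in pH 8.0 Tris/NaCl/TCEP buffer, beads added, then incubated 1 h, 37 C, dark.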
CtBP-E1A inh: CtBP/E1A binding inhibition; 340,000 compounds, 0.49% hits; activity change, % (test concentration not listed); AlphaScreen GST-E1A/His-CtBP binding, 1536-well; hits give low values; control for the full effect not named in the record; AID 651724; in the data active means activity change below about -65%; inconclusive means about -30% to -65%; inactive means above about -30%; further: on the % scale 0 is the no-effect control and ±100 the full control effect
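Steps: dispense buffer (Tris pH 8.0, NaCl 300 mM, TCEP 1 mM, BSA, Tween 20); add 5X protein mix (GST-E1A, His-CtBP, 125 nM each); pin 23 nL compound; 2 h at 37 °C, dark; add 5X beads (50 ug/mL); 1 h; read.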
D2 agonist: activates the human D2 dopamine receptor; DiscoveRx PathHunter D2 beta-arrestin, luminescence, 90 min; 100% = 57 uM dopamine signal; activation, % (test concentration not listed); 360,000 compounds, 0.084% hits; AID 624465; in the data active = activation above about 40%; inconclusive = about 15% to 40%; inactive = below about 15%; further: compound concentration not given in the record; the text of the record calls up to 30% inactive
Target sequence (P14416 whole entry, looked up): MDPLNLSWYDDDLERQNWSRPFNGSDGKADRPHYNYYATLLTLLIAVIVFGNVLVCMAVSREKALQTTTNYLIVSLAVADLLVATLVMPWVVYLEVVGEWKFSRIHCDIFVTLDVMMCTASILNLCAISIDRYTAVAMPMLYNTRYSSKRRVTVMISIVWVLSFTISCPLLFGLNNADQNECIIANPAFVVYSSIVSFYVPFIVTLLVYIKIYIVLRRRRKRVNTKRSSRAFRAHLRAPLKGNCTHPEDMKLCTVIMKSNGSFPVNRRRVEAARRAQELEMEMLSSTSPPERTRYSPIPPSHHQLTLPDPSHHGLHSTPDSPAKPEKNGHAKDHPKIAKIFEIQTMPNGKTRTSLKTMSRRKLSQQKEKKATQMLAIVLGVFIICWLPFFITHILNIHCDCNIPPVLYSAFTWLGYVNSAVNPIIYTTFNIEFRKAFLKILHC
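DiscoveRx PathHunter D2 beta-arrestin cells (2,100/well) attached overnight, then compound-stimulated 90 min at 37 C in HBSS/10 mM HEPES/0.1% Tween-20 buffer; beta-galactosidase complementation read by luminescence after 1 h at ambient temperature. Dopamine 57 uM final (EC100) as control.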
gsp agonist: agonists of gsp mutant (McCune-Albright syndrome); 340,000 compounds, 0.13% hits; AID 624287; gsp mutant cells, cAMP HTRF, 30 min; control for the full effect not named in the record; Potency, µM (doses to about 76.9 µM), for inactives: top-dose activation (cAMP increase), hits mostly activators; active = well fitted activation curve with a large enough effect; inconclusive = small, poorly fitted or top-dose-only effect, or another doubt; inactive = no such curve, though single readings can be large or run the other way; cell line not stated here;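 further: phosphodiesterase inhibitor Ro 20-1724 added with compounds to block cAMP breakdown; potency means the concentration at half of the fitted maximal effect; nearly all actives have a fitted effect of over 60% in size; about a fifth of the inactives were tested at one dose only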
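Cells stably selected in G418 were plated at 2000/well, grown 16-24 hr, then given compounds in DMSO with the PDE inhibitor […] (300 uM solution added) for 30 min at 37C; cAMP was read by HTRF.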
gsp antagonist: antagonizes gsp, the McCune-Albright syndrome mutation; gsp-mutant cells, cAMP HTRF, 30 min; control for the full effect not named in the record; Potency, µM (series often up to 76.9 µM), for the others: at the top dose activity change, negative = inhibition, actives largely listed as inhibitors; 340,000 compounds, 0.4% hits; active = falling curve of any shape with a large fitted effect; inconclusive = falling curve, mostly with a smaller effect; inactive = flat or rising curve; cell line not stated here;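 further: intracellular cAMP measured with PDE inhibitor Ro 20-1724 present during compound exposure; potency means the concentration at half of the fitted maximal effect; on the % scale 0 is the no-effect control and ±100 the full control effect; nearly all actives have a fitted effect of over 65% in size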
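HTRF cAMP measurement after 30 min RT detection following 30 min, 37C compound treatment alongside […] (added as 300 uM solution) in G418-selected cells seeded at 2000/well and grown 16–24 h.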
D2 potentiator: positive allosteric modulators of human D2 dopamine receptor; DiscoveRx D2 beta-arrestin cells, luminescence, 90 min; 100% = 57 uM dopamine signal; potentiation, % (no concentration beside the values); 360,000 compounds, 0.23% hits; active = potentiation of 50% or more; inconclusive = 30% to 50%; inactive = 30% or less;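 further: compound concentration not given in the record; tested on top of an EC20 dose of dopamine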
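PathHunter D2 cells, attached overnight at 37 deg C, received compound in DMSO plus dopamine at EC20 (50 nM final) for 90 min at 37 deg C. Beta-arrestin recruitment was read as luminescence after 1 h with detection reagent at ambient temperature.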
* marks the source's active call; other numbers are inactive results; ? = inconclusive; / = not tested or not shown; [ ] = dose if it differs, or a comment.

Results follow in this order: Six1-Eya2 blk, CtBP-E1A inh, D2 agonist, gsp agonist, gsp antagonist, D2 potentiator
> Nn1c(SCc2ccc(F)cc2)nnc1-c1ccncc1
→ -1, 1, -1.9, -23%[15.4 µM], 14%, -6
> CN(CC(=O)N/N=C/c1ccc(F)cc1)S(=O)(=O)c1ccccc1
→ -3, -7, -2.4, -3%, /, -24
> CN(C(=O)CSc1nnc(-c2cccc(F)c2)n1N)C1CCS(=O)(=O)C1 (centres undefined)
→ -2, 3, -2.3, 2%[15.4 µM], 8%, -2
> N#CC(=C=[N-])C1=C(C#N)C(c2ccccc2F)C([n+]2ccccc2)C(O)(C2CC2)N1 (centres undefined)
→ -1, -5, 1.1, 18%, 7%, 22
> CN(C)S(=O)(=O)c1cccc(NC(=O)COc2ccc(S(=O)(=O)N3CCOCC3)cc2Cl)c1
→ 0, 8, -1.6, -3%[15.4 µM], -5%, 0
> O=C(Nc1cnn(Cc2ccc(Cl)c(Cl)c2)c1)C12CC3CC(CC(C3)C1)C2
→ 1, -6, 1.4, -16%, -29%, 3
> COCCN(C(=O)c1ccc2ccccc2c1)c1c(N)n(Cc2ccccc2)c(=O)[nH]c1=O
→ 2, 8, -3.0, -9%[15.4 µM], -1%, 4
> O=C(Nc1cccc(C(=O)NC2CC2)c1)c1ccccc1
→ 2, 6, 1.7, /, -1%, -5
> O=C(Cn1c(=O)n(-c2ccccc2)c(=O)n1CC(=O)N1CCCCC1)N1CCCCC1
→ 3, 3, -0.7, 3%, 8%, -7
> CCOc1nc(-c2ccccc2)ccc1-c1noc(-c2ccco2)n1
→ 10, 12, -0.9, -2%, -6%, -8
> CCc1cc(=O)oc2cc(OCC=C(C)C)ccc12
→ 9, 31, -0.6, 21%, 3%, -17
> O=C(c1cc(COc2ccc3ncccc3c2)on1)N1CCC[C@H]1CO
→ -2, 2, 0.7, -20%, -20%, 4
> CCc1ccccc1NC(=O)CCC(=O)N1CCN(C(C)=O)CC1
→ 5, 6, -1.6, -97%[inhibitor], /, -7
> O=C(Nc1cccc2cccnc12)c1ccccc1Br
→ 24, 14, -2.8, -6%, -22%, -5
> CCOC(=O)/C(C#N)=C/N1CCOCC1
→ 4, 9, 1.7, -35%[15.4 µM], -13%, -2
> CCOc1ccccc1NC1=NCC(=O)N1Cc1ccc(F)cc1
→ -2, 3, -4.1, -2%, -12%, -6
> Cc1c(NC(=O)C(C)Sc2ccc3ccccc3n2)c(=O)n(-c2ccccc2)n1C (centres undefined)
→ 2, -1, 0.2, -33%[inhibitor], -1%, 0
> CCOC(=O)/C(C#N)=N/Nc1ccccc1C(=O)O
→ -1, 1, -6.8, 1%, -22%, 7
> O=C(COC(=O)c1ccc(O)cc1)Nc1cc(S(=O)(=O)N2CCCCCC2)ccc1Cl
→ -12, -12, 0.5, -32%, /, -17
> O=C(COC(=O)c1nc(Cl)ccc1Cl)NC1CCCCCC1
→ -1, 3, -1.1, 4%, 2%, -15
> Cc1nc2ccc(S(=O)(=O)Nc3ccc(-c4nc5cccnc5s4)cc3)cc2s1
→ 4, -30, -2.9, -10%, ?, -2
> Cc1ccc(S(=O)(=O)N2CCN(C(=O)CN3CCN(C)CC3)C2)cc1
→ 2, 11, -2.1, -13%, 2%, -5
> Cc1cc(C)n(Cc2cnc(N3CCOCC3)s2)n1
→ 5, 4, 3.8, 7%[15.4 µM], 1%, -12
> O=C1CC(c2ccccc2)Oc2ccccc21 (centres undefined)
→ 8, -8, -2.9, /, -9%, -5
> Cc1ccc(S(=O)(=O)N2CCOCC2)cc1C(=O)NCc1ccc(F)cc1
→ 3, 1, -0.3, -3%, -5%, 15
> COc1cccc(C(=O)NCC(=O)N/N=C/c2c(C)[nH]c3ccccc23)c1
→ -5, /, 0.4, 20%, -20%, -16
> O=S(=O)(c1ccc(Cl)cc1)N1CCN2CCCC2C1 (centres undefined)
→ -3, /, -3.2, 13%, 1%, 1
> CCOc1ccc(CCNC(=O)c2ccc(F)c(S(=O)(=O)N3CCOCC3)c2)cc1OCC
→ -5, 4, -1.1, -44%[inhibitor], -16%, 5
> CCOC(=O)C1=CN(Cc2ccco2)S(=O)(=O)N(C)C1c1ccc2ccccc2c1 (centres undefined)
→ 0, 13, 0.1, /, 2%, -4
> CCOC(=O)c1[nH]c(C)c(C(=O)OCC(=O)N2CCCCC2C)c1C (centres undefined)
→ -19, -8, 0.2, 12%, 9%, 2
> N#Cc1c(-c2ccccc2)c(-c2ccccc2)nn(CC(=O)NNC(=O)Nc2ccc(Cl)c(Cl)c2)c1=O
→ -21, -11, 4.2, 11%, -1%, 5
> COCCC(C(=O)Oc1c(C(C)(C)C)cc(C)cc1C(C)(C)C)c1ccccc1 (centres undefined)
→ 6, 3, 0.8, -19%, -3%, -5
> CC(=O)c1cccc(NC(=O)C(=O)c2cn(CC(=O)N3CCCCC3)c3ccccc23)c1
→ -4, 3, -1.5, -20%[15.4 µM], -21%, -8
> CC1Cc2cc(/C(O)=C3/C(=O)C(=O)N(CCCn4ccnc4)C3c3ccc([N+](=O)[O-])cc3)ccc2O1 (centres undefined)
→ -9, -9, 0.6, ?, 4%, -17
> Nc1cccc(-c2nc3ccc(N)cc3s2)c1
→ -9, -3, 3.2, ?, -10%, ?
> CC1CCN(C(=O)c2ccc(SCc3ccccc3F)c([N+](=O)[O-])c2)CC1
→ ?, -26, -4.4, 22%[15.4 µM], ?, -4
> Cn1c(Cc2ccccc2)nnc1SCC(=O)Nc1cccc(S(=O)(=O)NC2=NCCCCC2)c1
→ 1, 7, 0.3, 9%[15.4 µM], 0%, 2
> Cc1cc(=O)oc(C)c1C(=O)NCc1ccco1
→ 0, 4, -4.8, -12%, 5%, 5
> COC(=O)Cc1ccc(NC(=S)NN2CCOCC2)cc1
→ 7, 0, -5.7, -34%[inhibitor], 7%, -5
> Cc1cccc2nc(C(F)(F)F)nc(=O)n12
→ 11, -1, -4.0, 17%, -12%, -10

The closing 3 records of the part above open the next one.
Results follow in this order: Six1-Eya2 blk, CtBP-E1A inh, D2 agonist, gsp agonist, gsp antagonist, D2 potentiator
> Cc1cc(=O)oc(C)c1C(=O)NCc1ccco1
→ 0, 4, -4.8, -12%, 5%, 5
> COC(=O)Cc1ccc(NC(=S)NN2CCOCC2)cc1
→ 7, 0, -5.7, -34%[inhibitor], 7%, -5
> Cc1cccc2nc(C(F)(F)F)nc(=O)n12
→ 11, -1, -4.0, 17%, -12%, -10
> COc1cccc(N2C(=O)C3CCCN3C2c2ccc(Cl)cc2)c1 (centres undefined)
→ 0, 2, 1.8, 0%, 4%, 1
> CC(C)(C)C(=O)N1CCN(c2ncccc2C(F)(F)F)CC1
→ 0, /, -1.7, 19%, 14%, 1
> C/C(Nc1ccc(Cl)c(Cl)c1)=C1/CCOC1=O
→ -3, 3, -2.7, -30%, /, -3
> Oc1ccc(-c2sc(Nc3ccccc3)n[n+]2-c2ccc(F)cc2)cc1
→ 4, 3, -4.8, /, ?, -4
> CCCCNC(=O)C(CC)(ONc1ccccc1C(F)(F)F)c1ccccc1OC (centres undefined)
→ -27, -19, -8.6, 22%, -6%, -19
> Cc1ccccc1CSc1nnc(C)n1N
→ 2, 0, -2.6, -18%, 6%, 2
> C[C@@]12C(=O)NCC(=O)N1[C@@H]1c3cc(Br)ccc3OC[C@@H]1[C@@H]2c1ccccc1
→ -6, 5, -8.1, 23%, -7%, -12
> CC1(C)CC2(C)CC(=O)C1C(C(=O)O)C2C(=O)O (centres undefined)
→ -6, 5, -2.8, 4%, /, 0
> COc1cc2c(cc1OC)CN(C(=O)CSC1=NCCS1)CC2
→ -3, 4, -0.1, 3%, /, -7
> O=C(O)C[C@H]1c2cc(C(F)(F)F)ccc2S(=O)(=O)N1C1CCN(Cc2ccccc2)CC1
→ 9, /, 1.0, -6%, 2%, -12
> COc1ccccc1CC1(C)C(=O)Nc2ccc(S(=O)(=O)NC3CCCCC3)cc21 (centres undefined)
→ 9, -11, 1.4, /, /, 3
> COc1cc(C(O)c2nc(-c3csc4ccccc34)cs2)ccc1F (centres undefined)
→ 4, 7, 3.6, /, /, -3
> Cc1cc(C)n(CC(=O)N/N=C/c2cccc([N+](=O)[O-])c2)n1
→ 4, -5, -2.1, 4%, 2%, -2
> NS(=O)(=O)c1ccc(CNC(=O)CC23CC4CC(CC(C4)C2)C3)cc1
→ 8, 3, -0.7, -39%[inhibitor], -3%, 26
> CN(CC(=O)Nc1ccccc1Br)C(=O)c1ccc(-c2ccc(Cl)cc2)o1
→ 6, 0, 0.3, 8%, -13%, -2
> COc1cccc(-c2cc3nc(NCc4ccc(C)cc4C)n(C)c(=O)c3s2)c1
→ 0, 11, 1.4, /, /, -5
> Cc1ccc(S(=O)(=O)CC(O)COc2ccc(C#N)cc2)cc1 (centres undefined)
→ 7, 5, -3.2, 25%[15.4 µM], -1%, -4
> CCS(=O)(=O)N1CCN(c2ccc(C(=O)N3CCOCC3)cc2[N+](=O)[O-])CC1
→ 1, 4, 4.0, 16%, 1%, -6
> CCCCN(C)CCN1C(=O)C2C(C(=O)Nc3cccc(OC)c3)C3C=CC2(O3)C1C(=O)NC1CCCCC1C (centres undefined)
→ 2, 0, 0.6, 8%[15.4 µM], 6%, -2
> COc1cc(NC(=O)c2cccc(COCC(F)(F)C(F)F)c2)cc(OC)c1OC
→ -4, 4, 2.1, -18%, -22%, 2
> O=C(NCCCC(NC(=O)OCc1ccccc1)C(=O)O)OCc1ccccc1 (centres undefined)
→ 3, 0, -4.2, -36%[inhibitor], 0%, -1
> Cc1ccc(S(=O)(=O)NCC(=O)OCC(=O)N(Cc2ccccc2)C(C)(C)C)cc1
→ -3, 6, -4.3, 1%, ?, -11
> COc1cc(NS(=O)(=O)c2ccc(N/C=C(\C=O)c3nc4ccccc4o3)cc2)nc(OC)n1
→ -27, -15, -4.1, -2%[15.4 µM], ?, -5
> CC(=O)Nc1ccc2c(c1)nc(CCNC(=O)c1ccccc1)n2C
→ -1, 0, -1.4, 4%, -2%, -1
> COc1cc(CN2CCCCCC2)cc(Br)c1O
→ -4, 11, -19, -60%[inhibitor], 11%, -12
> CC(c1cccnc1)N(CCN(C)C)C(=O)Nc1ccc(Cl)c(Cl)c1 (centres undefined)
→ -3, -1, -2.6, 27%, 1%, -3
